CBX7 AlphaScr = CBX7 chromodomain binding inhibitors, primary screen, biochemical, AlphaScreen | Chromobox protein homolog 7 (Homo sapiens), O95931 | AlphaScreen His6-CBX7 / biotin-H3K27me3 peptide binding; stronger effect = lower value | normalised signal (fraction of DMSO) (no concentration beside the values) | 1.1% of 66,000 active; in the data active = normalised signal below about 0.5;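 also: 100 nL library stock added to about 20 µL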
Target sequence (O95931 whole entry, looked up): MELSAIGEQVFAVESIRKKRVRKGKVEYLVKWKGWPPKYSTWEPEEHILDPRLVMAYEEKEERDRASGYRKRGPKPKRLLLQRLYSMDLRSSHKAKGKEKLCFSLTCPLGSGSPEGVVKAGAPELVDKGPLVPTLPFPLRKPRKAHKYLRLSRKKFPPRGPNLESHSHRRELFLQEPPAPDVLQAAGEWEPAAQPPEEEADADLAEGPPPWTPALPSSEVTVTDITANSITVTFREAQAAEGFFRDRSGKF
CBX7 AlphaScr z-score = recorded beside CBX7 AlphaScr, whose call it bears; z-score; measured here: z-score of CBX7 signal; some inactives read as strong as hits; reference of the scale not given here;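 same signal on another scale; lower means less binding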
* = called active by the depositor.

SMILES | CBX7 AlphaScr | CBX7 AlphaScr z-score
CCOc1ccc(-c2nc3cc(NC(=O)c4cc(Cl)ccc4Cl)ccc3o2)cc1 | 1 | 0.71
CCCCNC(=O)c1cc(-c2cccnc2)nc2ccc(S(=O)(=O)NCCCC)cc12 | 1 | 0.11
Fc1ccc(Cn2c(-c3cncs3)nc3ccccc32)c(Cl)c1 | 0.98 | -0.5
Cc1ccc(Nc2cc(C)nc3nnnn23)c(C)c1 | 1 | 0.11
CC(=O)Nc1cc(-c2ccc(Br)cc2)nn1Cc1ccccc1 | 1.1 | 1.3
CC1c2nc3ccccc3n2C(CC(=O)NCc2ccccc2)C(=O)N1Cc1ccccc1 (configuration not stated) | 1 | 1.1
Cc1ccc2c(c1)[C@@H]1CN(C)CC[C@H]1N2S(=O)(=O)c1ccc(F)cc1 | 1 | 0.7
CCC(=O)NCCc1nc2ccccc2n1Cc1ccccc1Cl | 1.1 | 0.8
CCOC(=O)c1ccc2nc(C)cc(Nc3ccc(C)c(Cl)c3)c2c1 | 1 | 0.034
COc1cc(NC(=O)C2CCCN(S(=O)(=O)c3c(C)noc3C)C2)cc(OC)c1 (configuration not stated) | 1 | 0.14
C=CCNC(=O)c1ccc2c(c1)N(CC)C(=O)c1ccccc1S2 | 1 | 0.69
CCN(CC)c1nc(C)nc2sc(C(=O)Nc3ccc(OC)c(OC)c3)c(C)c12 | 0.94 | -1.5
CCOC(=O)c1sc2nc(C)nc(Nc3ccc4c(c3)OCCO4)c2c1C | 1 | 0.45
COc1ccc(Nc2cc(C(=O)NCc3ccccn3)c3ccccc3n2)cc1OC | 0.73 | -3.2
Cc1cccc(C)c1Nc1c(-c2cccs2)nc2sccn12 | 0.93 | -0.86
CC(=O)Oc1cccc(C(=O)Nc2cc(-c3nc4ccccc4[nH]3)ccc2C)c1 | 1.2 | 1.1
CCN(CC)C(=O)c1ccc2c(c1)N(Cc1ccccc1F)C(=O)c1ccccc1S2=O (configuration not stated) | 1.1 | 2
CCCCN(CCCC)S(=O)(=O)c1ccc(C(=O)Nc2nnc(-c3ccc(Cl)s3)o2)cc1 | 1 | 0.006
Cc1cc(-c2csc(Nc3ccc(S(N)(=O)=O)cc3)n2)ccc1F | 0.55 | -4.5
O=C(CN1C(=O)CSc2ccc(S(=O)(=O)N3CCCCC3)cc21)NCCN1CCCC1 | 0.99 | -0.67

In another format: 14 of the compounds above
mol,CBX7 AlphaScr,CBX7 AlphaScr z-score
CCOc1ccc(-c2nc3cc(NC(=O)c4cc(Cl)ccc4Cl)ccc3o2)cc1,1,0.71
CCCCNC(=O)c1cc(-c2cccnc2)nc2ccc(S(=O)(=O)NCCCC)cc12,1,0.11
Fc1ccc(Cn2c(-c3cncs3)nc3ccccc32)c(Cl)c1,0.98,-0.5
Cc1ccc(Nc2cc(C)nc3nnnn23)c(C)c1,1,0.11
CC(=O)Nc1cc(-c2ccc(Br)cc2)nn1Cc1ccccc1,1.1,1.3
CC1c2nc3ccccc3n2C(CC(=O)NCc2ccccc2)C(=O)N1Cc1ccccc1 (configuration not stated),1,1.1
Cc1ccc2c(c1)[C@@H]1CN(C)CC[C@H]1N2S(=O)(=O)c1ccc(F)cc1,1,0.7
CCC(=O)NCCc1nc2ccccc2n1Cc1ccccc1Cl,1.1,0.8
CCOC(=O)c1ccc2nc(C)cc(Nc3ccc(C)c(Cl)c3)c2c1,1,0.034
COc1cc(NC(=O)C2CCCN(S(=O)(=O)c3c(C)noc3C)C2)cc(OC)c1 (configuration not stated),1,0.14
C=CCNC(=O)c1ccc2c(c1)N(CC)C(=O)c1ccccc1S2,1,0.69
CCN(CC)c1nc(C)nc2sc(C(=O)Nc3ccc(OC)c(OC)c3)c(C)c12,0.94,-1.5
CCOC(=O)c1sc2nc(C)nc(Nc3ccc4c(c3)OCCO4)c2c1C,1,0.45
COc1ccc(Nc2cc(C(=O)NCc3ccccn3)c3ccccc3n2)cc1OC,0.73,-3.2

Continued:
SMILES | CBX7 AlphaScr | CBX7 AlphaScr z-score
Cn1c(C(=O)N2CCC(C(=O)O)CC2)cc2sccc21 | 1 | 0.59
CCN(C(=O)Cn1c(SCc2cccc(F)c2)nc2ccncc21)c1cccc(C)c1 | 0.95 | -1.5
CCOCCn1cnc2sc(C(=O)Nc3ccccc3C(=O)OC)c(C)c2c1=O | 1.2 | 2.3
Cc1ccc(OCCN2CCN(c3ncnc4scc(-c5ccccc5)c34)CC2)cc1 | 0.92 | -2.8
COc1ccc(-c2nn(C)c3sc(C(=O)N4CCN(Cc5ccc6c(c5)OCO6)CC4)cc23)cc1OC | 0.79 | -5.8
Cc1ccn2c(NC(=O)c3ccc4ccccc4c3)c(-c3ccc(F)cc3)nc2c1 | 0.98 | -0.66
c1ccc(-n2nnnc2N2CCN(c3ccccn3)CC2)cc1 | 0.98 | -0.29
Cc1ccc(NC(=O)c2cn(-c3ccc(Cl)cc3)c(=O)c3ccccc23)cc1F | 1 | 0.18
COc1ccc2nc(-c3ccc(F)cc3)c(-c3ccc(F)cc3)nc2c1 | 1.1 | 2.3
O=C(NCc1ccccn1)c1n[nH]c(=O)c2ccccc12 | 0.8 | -1.2
CCOc1ccc(-c2nc(CSCC(=O)NCCc3ccccc3)c(C)o2)cc1 | 0.53 | -6.5
COc1cccc(C2=NOC(C(=O)Nc3ccc(C)cc3)C2)c1 (configuration not stated) | 0.9 | -1.4
O=C(CSc1nccn1-c1ccccc1)Nc1ccc2c(c1)OCCO2 | 0.79 | -4.4
CCC1Oc2ccc(C)cc2N(CC(=O)NCCN(C)C)C1=O (configuration not stated) | 1 | 0.27
CCCN1Cc2cccc(C(=O)Nc3ccc(F)c(Cl)c3)c2C1=O | 1 | 0.78
CN(CCc1ccccn1)C(=O)c1cc2nc(-c3ccc(Cl)c(Cl)c3)cc(C(F)(F)F)n2n1 | 0.82 | -1.8
COc1ccc(C2c3c(noc3C)CC(C)(O)C2C(C)=O)cc1OC (configuration not stated) | 1.1 | 1.3
CCN(CCCNC(=O)c1cc2c(-c3ccc(OC)c(OC)c3)nn(C)c2s1)c1ccccc1 | 0.81 | -2.5
COc1ccc(Nc2c(-c3cccc(O)c3)nc3cnccn23)cc1 | 0.95 | -1.9
Cc1oc(-c2ccc(Cl)cc2)nc1CN1CCC(C(=O)NC2CCCCC2C)CC1 (configuration not stated) | 1.1 | 1.3
O=C(NCc1cccs1)C1CCCN(S(=O)(=O)c2ccc(Br)s2)C1 (configuration not stated) | 1.2 | 0.76
Cc1ccc(S(=O)(=O)c2cn(CC(=O)Nc3cc(C)ccc3C)c3ccc(Cl)cc3c2=O)cc1 | 0.98 | -0.32
Cc1nnn(C23CC4CC(CC(CC(=O)Nc5ccc(C)c(Cl)c5)(C4)C2)C3)n1 | 1 | 0.57
Cc1cc(NC(=O)NC(=O)c2c(Cl)cccc2Cl)n[nH]1 | 1.1 | 1.9
COc1ccc(-c2cn(-c3ccc(Br)cc3)c(=O)[nH]2)cc1OC | 1 | 0.16
COc1ccc(-c2cc(C(=O)NCc3cccnc3)c3ccccc3n2)cc1 | 1.1 | 2.3
CNC(=O)c1c[nH]c2ccc(S(=O)(=O)Nc3ccccc3F)cc2c1=O | 1.1 | 1.1
CCOC(=O)C1CCN(C(=O)CC2C(=O)N(Cc3ccccc3)C(C)c3nc4ccccc4n32)CC1 (configuration not stated) | 1 | 1
CCC1Oc2ccc(C)cc2N(CC(=O)N2CCCC2)C1=O (configuration not stated) | 0.9 | -1.9
Cc1nc2ccc(S(=O)(=O)NC(C(=O)Nc3ccc(Cl)cc3)C(C)C)cc2s1 (configuration not stated) | 1 | 0.87
CN(C(=O)c1cnc(N2CCN(c3ccccn3)CC2)c2ccccc12)C1CCCCC1 | 0.98 | -0.7
O=C1CSC(c2ccc(Br)cc2)N1c1cccc(Cl)c1 (configuration not stated) | 0.98 | -0.74
CCOC(=O)c1nnn(-c2nonc2N)c1CN1CCCC(C(=O)OCC)C1 (configuration not stated) | 1 | 0.76
NC(=O)c1c(NC(=O)CCN2C(=O)c3ccccc3C2=O)sc2c1CCCC2 | 0.96 | -0.67
O=C(NCc1ccccc1Cl)C(Cc1ccccc1)NS(=O)(=O)c1cccc2cccnc12 (configuration not stated) | 0.98 | -0.49
CCCN(CCC)C(=O)c1c[nH]c2ccc(S(=O)(=O)Nc3cc(C)cc(C)c3)cc2c1=O | 0.93 | -0.31
Cc1csc2ncc(C(=O)Nc3cccc(Cl)c3)c(=O)n12 | 1.1 | 2.5
CCOc1ccc2nc(N3CCC(C(=O)NCCN(CC)CC)CC3)sc2c1 | 1.2 | 0.69
COc1ccc(OC)c(CNC(=O)Cn2ncc3c2-c2ccccc2OC3)c1 | 1 | 0.91
CNS(=O)(=O)c1cc(-c2nnc(Nc3ccc(OC(F)(F)Cl)cc3)c3ccccc23)ccc1C | 1 | 0.18
CCC(C)NC(=O)CN1C(=O)CSc2ncccc21 (configuration not stated) | 1 | 0.34
CCOc1ccc(-c2cc(CCCC(=O)Nc3ccc(CC)cc3)no2)cc1 | 0.92 | -0.37
Cc1cc(=O)n2nc(N3CCC(C(=O)N4CCCC4)CC3)sc2n1 | 1 | 0.62
Clc1ccc(/C=C/c2ccc3cccc(OCc4ccccc4)c3n2)cc1 | 2.1 | 13
O=C(Nc1ccc(F)cc1F)C1OC2OC3(CCCCC3)OC2C2OC3(CCCCC3)OC12 (configuration not stated) | 0.98 | -0.28
COC(=O)c1ccc2c(c1)N(Cc1cc(C)ccc1C)C(=O)c1ccccc1S2=O (configuration not stated) | 0.81 | -2.8
O=C1CN(C(=O)CCC2CCCCC2)C(c2ccccc2)c2cc(F)ccc2N1 (configuration not stated) | 0.99 | -0.022
CCCCNC(=O)C1CCCN(Cc2nc(-c3cccs3)oc2C)C1 (configuration not stated) | 0.78 | -0.87
COC(=O)C(C)Sc1nnc(-c2ccncc2)o1 (configuration not stated) | 0.77 | -0.92
CCOc1ccc(Nc2cc(C(=O)NCc3ccccc3OC)c3ccccc3n2)cc1 | 1 | 0.32
O=C(CSc1nc2ccccc2o1)Nc1ccc(Br)cn1 | 1 | 0.59
CC1CCC2C3(C)COC(C)(C)OC3CCC2(C)C12CCC(C)(CO)O2 (configuration not stated) | 1 | 1.9
CCOC(=O)c1ccc(N2C(=O)CC(NCCc3ccc(OC)c(OC)c3)C2=O)cc1 (configuration not stated) | 1.3 | 2.4
Cn1c2ccccc2c2c(C(=O)NCCCN3CCCC3)cn(C3CCCCC3)c(=O)c21 | 1 | 0.2
CCN1C(=O)c2ccccc2S(=O)(=O)c2ccc(C(=O)NCCc3ccc(Cl)cc3)cc21 | 0.87 | -2.1
Cc1onc(-c2ccccc2)c1C(=O)Nc1nnc(N(C)Cc2ccccc2)s1 | 1.1 | 2
O=C(O)c1[nH]c2ccc(Cl)cc2c1CC(=O)N1CCN(c2ccccn2)CC1 | 0.96 | -1
CC(C)(C)c1ccc(C(=O)Nc2ccc3nc4n(c(=O)c3c2)CCCCC4)cc1 | 1.1 | 2.3
Cc1ccc(CN2C(=O)CCC2C(=O)NCCCN2CCCCC2)cc1 (configuration not stated) | 1.1 | 1.3
COc1ccc(NC(=O)CC2C(=O)N(c3ccc(F)cc3)C(=O)N2Cc2ccc3c(c2)OCO3)cc1 (configuration not stated) | 1 | -0.053

(continued)
SMILES | CBX7 AlphaScr | CBX7 AlphaScr z-score
CCn1c(COc2ccc(OC)cc2)nc2ccccc21 | 0.97 | -0.68
O=C(Cn1c2c(c(-c3ccccc3Cl)cc1=O)CCC2)NCc1cccnc1 | 0.72 | -3
O=C(CSc1nnc(Cc2cc(=O)[nH]c(=O)[nH]2)n1-c1ccc(Cl)cc1)Nc1ccccc1 | 1 | -0.024
CCC(CO)NCC(O)COc1ccc(C)cc1C (configuration not stated) | 1.1 | 1.2
CCOc1ccc(-n2cnnn2)cc1S(=O)(=O)NCCc1ccc(OC)c(OC)c1 | 1.1 | 0.6
Cc1ccccc1Nc1nnc(-c2cc3c(CO)cnc(C)c3oc2=O)s1 | 1.1 | 0.34
CCCN(CCC)CCNC(=O)CS(=O)(=O)Cc1nc(-c2cccc(OC)c2)oc1C | 1 | 0.21
CCN(CC)CCCNC(=O)Cc1cn(C)c2ccccc12 | 0.98 | -0.36
COc1ccc(CNC(=O)CCc2c(C)nc3cc(-c4cccc(F)c4)nn3c2C)cc1 | 1 | 1.5
COc1ccc(-n2ncc3c(NCc4ccccc4Cl)ncnc32)cc1 | 0.91 | -0.31
O=C(Nc1ccc(Cl)cc1)c1cccc2c1C(=O)N(C1CCCCC1)C2 | 0.93 | -0.88
CCc1ccc(-c2nc(CN3CCC(C(=O)NCc4cccs4)CC3)c(C)o2)cc1 | 1.1 | 0.074
O=C(CCc1nc(-c2ccccc2F)no1)Nc1ccccn1 | 1.1 | 1.3
CC(C)(CC(=O)N1CCN(c2cccc(Cl)c2)CC1)CC1=NS(=O)(=O)c2ccccc2N1 | 0.8 | -4.2
COc1ccc(CCNC(=O)CCN2C(=O)COc3ccc(C)cc32)cc1OC | 1 | -0.068
Cn1c2c(c3ccccc31)CCc1nonc1-2 | 1 | 0.17
CCOC(=O)N1CCN(C(=O)C2CC(c3cccc(OC)c3)=NO2)CC1 (configuration not stated) | 0.96 | -0.5
CCOc1ccc(-c2cc(C(=O)N3CCN(c4ccc(Cl)cc4)CC3)c3ccccc3n2)cc1 | 0.99 | -0.055
O=C(NC1CCCCC1)N1CCC(n2c(=O)[nH]c3ccccc32)CC1 | 1 | 0.85
Cc1oc(-c2cccs2)nc1CN1CCCC(C(=O)NC2CC2)C1 (configuration not stated) | 1 | 0.9
Cc1ccc(-c2n[nH]c3c2C(c2ccccc2F)N(c2ccccc2)C3=O)cc1 (configuration not stated) | 0.94 | -0.61

From PubChem BioAssay

A portion of the library. The share of hits here may be higher or lower than overall.
